# T cruzi repl: T. cruzi replication inhibition | inhibition, % (concentration not given with the values) | T. cruzi beta-gal in NIH3T3, luminescence, 90 h | 1.4% of 300,000 active;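 active means mean inhibition across valid replicates above about 55%, limit read from the data; inconclusive means mean below that limit but half or more replicates reach it; inactive means mean below it, under half of replicates reach it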;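 further: signal also drops with host cell toxicity which is not excluded here; 0% = plate median of DMSO wells and 100% = zero luminescence signal; higher percent means less beta-gal luminescence so fewer parasites; stock transfer was 50 nL into about 50 µL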
# Bfl-1 A1 inh: inhibitors of the anti-apoptotic protein A1, read as caspase activation; 0.066% of 330,000 active; MEF A1-2A-BIM cells, Caspase-Glo 3/7 luminescence, 3 h; percent of clofoctol response, vehicle zero; caspase activation, % (concentration not given with the values);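 active means over half of replicate activation scores above 10%, or exactly half above 10 with the replicate mean above 10; inconclusive means replicate mean below 10 yet half the replicates above 10; inactive means over half of replicates below 10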;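 further: wells of about 30 µL received 50 nL stock; many hits fall short of the cut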
# Beta apoptosis: beta cell apoptosis inhibition; INS-1E cytokine-induced death, ATP luminescence, 48 h; percent of positive-control rescue, neutral wells zero; protection from apoptosis, % (concentration not given with the values); 0.8% of 300,000 active; AID 435005;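 active means all replicates at 75% or more, or half of them and the mean; inconclusive means half reach 75% but not the mean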;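 further: 0% = cytokine-treated negative control wells and 100% = positive control rescue; higher means more ATP so stronger rescue from cytokine killing; wells of about 40 µL received 100 nL stock; the first replicate is given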
# MLL AF4-AF9 inh: blocks AF4 peptide binding to human AF9; P42568; AlphaScreen, biotin-AF4 peptide binding to FLAG-AF9; inhibition, % at 10 µM; 0.47% of 350,000 active; AID 651704;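 active means every replicate reaching a set inhibition limit, whatever the replicate mean, cut at about 25% in these data; inconclusive means mean inhibition reaches that limit but some replicates miss it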;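 further: 0% = plate neutral control median and 100% = total signal loss; the record names both 10 and 1 µM as test concentration; the first replicate is given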
# Target sequence (P42568 whole entry, looked up): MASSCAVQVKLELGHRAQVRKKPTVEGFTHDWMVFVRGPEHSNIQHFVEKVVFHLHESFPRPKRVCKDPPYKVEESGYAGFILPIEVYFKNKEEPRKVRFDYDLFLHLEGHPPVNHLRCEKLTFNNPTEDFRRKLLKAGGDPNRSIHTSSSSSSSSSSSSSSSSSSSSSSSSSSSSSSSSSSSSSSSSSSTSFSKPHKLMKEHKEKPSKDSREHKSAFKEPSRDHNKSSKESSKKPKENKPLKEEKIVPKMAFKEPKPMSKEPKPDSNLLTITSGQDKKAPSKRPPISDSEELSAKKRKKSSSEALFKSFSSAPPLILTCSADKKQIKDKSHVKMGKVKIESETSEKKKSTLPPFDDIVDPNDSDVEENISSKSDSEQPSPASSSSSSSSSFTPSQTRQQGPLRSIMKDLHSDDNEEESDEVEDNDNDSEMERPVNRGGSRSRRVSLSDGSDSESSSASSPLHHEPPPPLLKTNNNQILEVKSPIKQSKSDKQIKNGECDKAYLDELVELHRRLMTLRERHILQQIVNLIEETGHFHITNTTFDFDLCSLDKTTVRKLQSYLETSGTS
# UCH37 inh: inhibitors of human deubiquitinating enzyme UCH37 | purified proteasome/UCH37, Ub-AMC cleavage fluorescence | Q9Y5K5 | 0.33% of 330,000 active | inhibition, % (concentration not given with the values) | AID 588478;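 active means mean of two replicates above 20%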;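 further: 0% = compound-free wells with enzyme and 100% = wells lacking proteasome; stock transfer was 100 nL into about 20 µL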
# Target sequence (Q9Y5K5 whole entry, looked up): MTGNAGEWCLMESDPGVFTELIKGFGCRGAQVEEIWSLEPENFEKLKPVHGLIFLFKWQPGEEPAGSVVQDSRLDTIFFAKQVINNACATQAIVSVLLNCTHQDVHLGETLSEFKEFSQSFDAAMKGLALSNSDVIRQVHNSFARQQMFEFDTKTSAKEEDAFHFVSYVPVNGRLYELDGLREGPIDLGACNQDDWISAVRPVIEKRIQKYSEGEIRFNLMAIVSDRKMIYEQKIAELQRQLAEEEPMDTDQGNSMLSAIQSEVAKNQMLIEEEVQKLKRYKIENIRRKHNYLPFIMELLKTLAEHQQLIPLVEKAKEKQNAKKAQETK
#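 Schedule: 30 min plus 25 min, room temperature / Material: human UCH37 within purified proteasomes / Technique: AMC fluorescence intensity at 355/460 nm / Buffer or medium: pH 7.4 Tris-HCl (50 mM) with ovalbumin, ATP-MgCl2, DTT / Controls: wells without proteasome as full block, compound-free enzyme plus substrate as uninhibited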
# Ecoli growth: blocks Escherichia coli growth; 0.21% of 330,000 active; OD600 absorbance (no concentration beside the values); OD600, 23 h; hits give low values; AID 1053175;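 active means OD600 absorbance below the run mean of sample wells minus 3.6 SD, in any replicate, cut at about 0.56 in these data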;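 further: stock transfer was 300 nL into about 60 µL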
# FGF22 binding: binders of recombinant human FGF22 by thermal shift | 1.5% of 340,000 active | SYPRO orange fluorescence; percent of sucrose octasulfate shift, DMSO zero | calls only at 9.99 µM | Q9HCT0;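 active means melting point raised past a set limit in the mean and every replicate; inconclusive means no clear call; three in four hits are not shown here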
# Target sequence (Q9HCT0 whole entry, looked up): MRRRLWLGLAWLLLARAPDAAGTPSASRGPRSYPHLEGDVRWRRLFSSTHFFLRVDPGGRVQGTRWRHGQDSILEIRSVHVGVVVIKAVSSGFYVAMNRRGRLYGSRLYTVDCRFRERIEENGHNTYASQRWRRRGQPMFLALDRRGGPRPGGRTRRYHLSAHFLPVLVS
# Ecoli rRNA inh: inhibitors of bacterial rRNA selective over humanized ribosomes. E. coli WT GFP vs humanized-ribosome RFP mutants, fluorescence, 24 h; hits give low values; DMSO median 0, no signal -100. GFP signal change (wild-type ribosome), % (no concentration beside the values). 1.6% of 350,000 active;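 active means significant combined selectivity score with lowered wild-type GFP, culture density cut under 30%, mutant RFP and density less affected; inactive means any of these conditions unmet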; further: one replicate is shown; some compounds called inactive have numbers as strong as hits
# Ecoli rRNA inh OD600: further read-out of Ecoli rRNA inh, marked with its call; OD600 change, %; measured here: OD600 growth;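 optical density of the mix in the first replicate; 0 = DMSO median and -100 = no signal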
# Ecoli rRNA inh RFP: also measured in Ecoli rRNA inh; calls as there; RFP signal change, %; measured here: RFP humanized mutant strains;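 first replicate; 0 = DMSO median and -100 = no signal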
# * hit, by the source's call; i = inactive; ? = inconclusive; . = no result given; + = active, no number. The list is partial; count on the stated rates, not on these rows.
SMILES,T cruzi repl,Bfl-1 A1 inh,Beta apoptosis,MLL AF4-AF9 inh,UCH37 inh,Ecoli growth,FGF22 binding,Ecoli rRNA inh,Ecoli rRNA inh OD600,Ecoli rRNA inh RFP
CSc1ccc(S(=O)(=O)Nc2ccc(F)cc2)cc1,-3,-0.1,-1,.,-1.8,0.64,.,.,.,.
COc1ccc(CC(=O)NCc2ccc(F)cc2)cc1S(=O)(=O)N1CCOCC1,.,-0.1,-3,0.6,2.2,0.67,i,3,10,-1.5
COc1ccc(OCC(O)CNC(=O)c2sccc2Cl)cc1 (centres undefined),-8,0.1,3,0.4,1.5,0.66,i,1,-8,-1.1
C=CCCC(=O)N1CCCC(Cc2cccc(Cl)c2)(C(=O)OCC)C1 (centres undefined),0,-0.3,.,-0.6,-1.6,0.71,i,-23,-34,-2.8
O=[N+]([O-])c1ccc(Cl)c(S(=O)(=O)Nc2ccc(S(=O)(=O)N3CCOCC3)cc2)c1,-26,1.5,4,2.4,6.1,0.66,+,-5,15,-2.1
CCCCc1cc(=O)oc2cc(C)cc(OC(C)C(=O)NCc3cccnc3)c12 (centres undefined),6,-1.5,17,0.0,-96,0.68,i,-10,-4,-2.3
CSc1nc2sc3c(c2c(=O)[nH]1)CCC3,-5,0.7,6,.,-0.8,0.68,.,.,.,.
N#Cc1c(-c2ccco2)cc(-c2cccnc2)nc1N,-27,-0.2,-1,.,i,0.67,.,.,.,.
CS(=O)(=O)N1CCN(C(=O)c2ccc(F)cc2)CC1,14,0.0,2,-39,2.5,0.67,i,6,10,0.9
CC(C)CCC(C(=O)NC(C)c1ccccc1)C(=O)NC(C)c1ccccc1 (centres undefined),-8,-0.6,1,-3.4,1.3,0.7,i,6,8,6.3
CCCCNc1c([N+](=O)[O-])ncn1C,-17,0.6,-2,-1.8,5.2,0.66,i,9,12,1.4
COc1ccc(Br)cc1CSC(=N)N,0,0.0,.,-0.3,2.9,0.69,i,3,5,-0.5
COc1ccc(N(CC(=O)NCCSCc2ccc(C)cc2)S(=O)(=O)c2ccccc2)cc1,38,0.8,5,-5.7,6.3,0.72,i,3,-2,2.6
CCN(CC(=O)Nc1ccc(NC(C)=O)cc1)C(=O)CCCOc1cccc(C)c1,-13,-0.8,6,-3.3,1.2,0.69,i,4,6,0.1
CN(C(=O)c1cccc(NC(=O)Cc2ccc(NC(=O)C3CCN(C(=O)CCc4ccccc4)CC3)cc2)c1)C1CC1,.,.,.,-1.5,6.0,0.69,i,-5,-8,-11
O=C(Nc1ccc(Nc2ccccc2)cc1)c1ccc(Cl)c([N+](=O)[O-])c1,5,0.1,0,8.4,4.9,0.63,i,-3,3,10
O=C(NC12CC3CC(CC(C3)C1)C2)N1CCCC(CO)C1 (centres undefined),17,2.6,.,.,2.2,0.75,.,.,.,.
Nc1nnc(SCCN2C(=O)c3ccccc3S2(=O)=O)s1,-11,-0.5,-6,.,4.0,0.77,.,.,.,.
CCCCCCCCCCCCCCCC[n+]1ccc(/C=N/O)cc1,.,1.4,123*,4.5,.,.,i,-37*,-27*,-1.2*
CN(C)/C=N/c1ncnc2c1cnn2-c1ccc(C(F)(F)F)cn1,-7,.,.,1.8,.,.,i,7,8,4.1
Fc1ccc(OCCOCCN2CCNCC2)cc1,-7,0.3,-4,-9.3,0.1,0.63,i,12,17,2.0
COC(=O)c1ccccc1-n1c(CCC(=O)O)ccc1-c1ccc(F)cc1,7,0.6,-1,-0.2,-2.2,0.69,i,-5,-3,2.1
Cc1onc(-c2ccc(Cl)cc2Cl)c1-c1csc(N/N=C/c2ccccc2)n1,40,1.2,.,-0.7,.,.,i,3,3,3.6
COc1ccccc1N1CCN(C(=O)c2cc3c(=O)n(C)c4ccccc4c3n2C)CC1,22,-0.6,4,-1.7,4.2,0.71,i,-8,-11,-1.6
COc1cccc(C(=O)N2c3ccccc3Sc3ccccc32)c1,10,0.6,-3,-1.1,2.5,0.65,i,-30,-40,-12
CC(C)CCn1c(SCC(=O)N2CC(=O)Nc3ccccc32)nc2scc(-c3cccs3)c2c1=O,22,0.5,4,.,0.1,0.67,.,.,.,.
CCOc1ccc(S(=O)(=O)N2CCC(C(=O)NCC(=O)Nc3cccc(Cl)c3C)CC2)cc1,.,.,.,-0.8,4.7,0.65,i,.,.,.
COc1ccccc1/C=C/C(=O)Nc1cccnc1,-9,0.2,-1,-0.4,-0.8,0.59,i,-11,-4,-1.7
C/C(=N\Nc1nc(N2CCOCC2)nc(N2CCOCC2)n1)c1ccc([N+](=O)[O-])cc1,-9,-0.3,.,0.9,.,.,i,4,9,2.1
CCOC(=O)c1ccc(NC(=O)C2CCCN(S(=O)(=O)c3cnc[nH]3)C2)cc1 (centres undefined),-2,0.7,-3,3.4,3.3,0.69,i,-8,-8,0.3
COc1cc(/C=N\NC(=O)c2cccc(Cl)c2)ccc1Oc1ccc([N+](=O)[O-])cn1,-4,1.4,2,4.3,.,.,i,7,-3,1.8
Cc1ccc2nc(SCC(=O)NCc3ccco3)c(C)cc2c1,15,-0.6,-3,-0.5,2.3,0.66,i,5,-8,-0.5
COCCn1c(SCC(=O)Nc2c(C)n(C)n(-c3ccccc3)c2=O)nc2ccccc2c1=O,.,-1.3,-5,-2.3,1.8,0.69,i,-2,5,-0.6
O=C(c1sccc1-c1ccccc1)N1CCN(S(=O)(=O)c2ccccc2)CC1,14,-1.6,.,-6.2,-2.6,0.71,i,-16,-29,1.6
CCN(CC)S(=O)(=O)c1ccc(Oc2ccc(S(=O)(=O)N(CC)CC)cc2)cc1,7,0.9,113*,.,1.1,0.74,.,.,.,.
O=c1[nH]nnc2cc(Cl)ccc12,.,.,.,7.0,-1.6,0.71,i,11,6,3.6
CC1NC(=S)N(Cc2ccccc2)C1=O (centres undefined),-1,2.8,.,-8.7,0.1,0.63,i,-8,-22,-2.4
NC(=O)c1ccc(NC(=O)COC(=O)CCN=C2NS(=O)(=O)c3ccccc32)cc1,.,1.3,0,3.0,2.8,0.66,i,5,9,-2.8
Cc1ccc(C(=O)c2c(NC(=O)c3ccncc3)sc3c2CCCC3)cc1,58*,.,6,.,5.9,0.7,.,.,.,.
COc1ccc(/C=N/NC(=O)C[n+]2ccccc2)c(OC)c1,-6,0.6,-1,-1.6,.,.,i,23,20,-0.3
CCOC(=O)N1CCN(c2cc(=O)n(-c3cccc(C)c3)c(=O)[nH]2)CC1,-3,-0.2,-1,2.1,4.5,0.66,i,11,9,-3.0
COc1ccc(S(=O)(=O)N(Cc2cc3ccc(OC)cc3[nH]c2=O)CC2COCCO2)cc1 (centres undefined),.,-0.7,1,.,-9.2,0.78,.,.,.,.
COc1ccc(Nc2nc(-c3ccc(OC)cc3)cs2)cc1,15,0.1,.,-0.1,2.4,0.72,i,10,1,4.3
COc1cccc(Nc2nc(C)cc(C)c2C#N)c1,.,-0.4,3,.,-4.9,0.72,.,.,.,.
c1ccc(-c2ccc(CN3C[C@@H]4C(c5ccccc5)C5(c6ccccc6)CC4(C5)[C@H]3c3ccccc3)cc2)cc1 (some centres undefined),-10,1.3,14,-4.7,-0.6,.,i,9,14,3.9
CC(C)[C@H](NC(=O)c1ccccc1)C(=O)NCCc1ccccc1,-7,0.5,3,2.5,-0.9,0.67,i,6,16,-1.2
Cc1nn2c(=O)cc(CSc3nc4ccccc4[nH]3)nc2s1,-14,0.7,-6,-2.0,6.9,0.77,i,1,0,-2.4
O=C(O)CC(c1ccc(Cl)cc1)N1C(=O)CCC1=O (centres undefined),-11,-0.2,-4,.,6.9,0.75,.,.,.,.
O=C(NNc1nc2cc3c(cc2s1)OCO3)c1ccccc1,-2,0.0,.,?,5.9,0.68,i,-8,-13,-2.0
COc1ccc(C2=NO[C@@H]3C(=O)N(c4ccc(C)cc4C)C(=O)[C@H]23)cc1OC,0,-0.6,1,.,1.8,0.74,.,.,.,.
COc1ccc(CCNC(=O)c2ccccc2NS(=O)(=O)c2cc(C(=O)O)ccc2OC)cc1,6,-0.2,-5,-0.7,-1.3,0.68,i,-9,-6,0.8
Cc1nc2c(c(=O)n1CCC(C)C)c1nc3ccccc3nc1n2CC1CCCO1 (centres undefined),-8,-0.6,.,-11,-229,0.7,i,7,5,3.5
Cc1ccc(C2C3=C(CCCC3=O)OC3=C2C(=O)CCC3)cc1,-4,1.8,-1,-1.6,4.9,0.65,i,2,10,-1.3
CCOc1cc(C=O)ccc1OCCSc1ccc(C)cc1,0,0.4,-4,-5.9,-0.3,0.68,i,-2,-12,2.4
O=C(CNCC1(N2CCOCC2)CCCCC1)Nc1ccc(Cl)cc1,5,-0.3,-7,0.3,7.5,0.66,i,16,8,4.9
O=C(O)CC(CC(=O)O)(C(=O)O)c1ccccc1,-8,-0.7,-1,6.1,1.1,0.73,i,7,-4,-0.7
CC(C(=O)Nc1ccccc1Cl)c1ccc([N+](=O)[O-])cc1 (centres undefined),2,0.5,-3,0.1,0.6,0.68,i,13,10,4.8
Cc1[nH]c(C)c(S(=O)(=O)NCCc2ccc(S(N)(=O)=O)cc2)c1C(=O)N1CCCC1,36,0.3,-5,-0.6,0.9,0.66,i,7,12,-0.3
Cc1ccc(C(=O)CSc2nnc(COc3cc(C)cc(C)c3)o2)cc1,-4,0.4,-1,.,-0.4,0.65,.,.,.,.
CCN1CCN(C(=O)C2CCN(S(=O)(=O)c3cccc4cccnc34)CC2)CC1,-1,1.5,.,-0.8,3.4,0.75,i,3,21,8.9

# By substructure: the entries above with a cyano group.
SMILES,T cruzi repl,Bfl-1 A1 inh,Beta apoptosis,MLL AF4-AF9 inh,UCH37 inh,Ecoli growth,FGF22 binding,Ecoli rRNA inh,Ecoli rRNA inh OD600,Ecoli rRNA inh RFP
N#Cc1c(-c2ccco2)cc(-c2cccnc2)nc1N,-27,-0.2,-1,.,i,0.67,.,.,.,.
COc1cccc(Nc2nc(C)cc(C)c2C#N)c1,.,-0.4,3,.,-4.9,0.72,.,.,.,.

# Taken from above:
# O=C(NNc1nc2cc3c(cc2s1)OCO3)c1ccccc1 in Ecoli rRNA inh RFP → -2.0
# Cc1nn2c(=O)cc(CSc3nc4ccccc4[nH]3)nc2s1 in T cruzi repl → -14

# (cont.)
SMILES,T cruzi repl,Bfl-1 A1 inh,Beta apoptosis,MLL AF4-AF9 inh,UCH37 inh,Ecoli growth,FGF22 binding,Ecoli rRNA inh,Ecoli rRNA inh OD600,Ecoli rRNA inh RFP
COc1ccc(S(=O)(=O)N2CCOCC2)cc1NC(=O)Cc1cccs1,.,0.5,-4,-0.5,2.1,0.66,i,9,14,-1.5
O=C(COc1ccccc1)NNC1=NS(=O)(=O)c2ccccc21,-14,-0.7,-4,-2.2,2.3,0.7,i,18,14,0.7
Cc1nn(-c2ccc(F)cc2)c(N)c1C1(O)C(=O)Nc2ccccc21 (centres undefined),-4,0.2,-11,-0.7,5.0,0.73,i,13,8,2.9
COc1ccc(-c2csc(NC(C)c3nc4cc(C(F)(F)F)ccc4n3CCOCCO)n2)cc1 (centres undefined),22,-2.7,7,-36,1.4,0.72,i,0,-7,14

# Source: PubChem (several laboratories)
